eIF4H inh: inhibitors of RNA binding by human eIF4H; Q15056; eIF4H fluorescence polarization binding assay; inhibition, % at 35 µM; 290,000 compounds, 0.94% hits; AID 2012;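 active means 50% or more with normal probe brightness, or confirmed in later tests; inconclusive means above 50% with abnormal brightness, or retests that disagree; inactive means below 50% or failed in later tests; about a fifth of its hits are not listed in these tables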;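 further: calls also rest on retests at 20 µM and on dose response follow-up; 0% = protein and probe with vehicle and 100% = probe without protein; strong numbers were not always called active; many hits fall short of the cut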
HIV Env fusion: HIV envelope-mediated fusion inhibition | AID 651610 | inhibition, % at 12.3 µM | 360,000 compounds, 1.1% hits | HeLa-JRFL Env/CEM21 cell fusion, luciferase;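 active means mean replicate inhibition score of at least 50 and every replicate individually at or above 50; inconclusive means only one of the two criteria met; inactive means mean below 50 and not all replicates reaching 50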;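 further: 0% = plate neutral controls and 100% = maraviroc near 300 nM; one replicate is shown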
PABP FP inh: PABP-poly(A) binding inhibition; inhibition, % at 35 µM; PABP-poly(A) RNA binding, fluorescence polarization; 290,000 compounds, 1% hits; P11940;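 active means 50% or more with normal probe brightness, or confirmed in later tests; inconclusive means above 50% with abnormal brightness, or retests that disagree; inactive means below 50% or failed in later tests; about a fifth of its hits are not listed in these tables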;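 further: calls also rest on retests at 20 µM and on dose response follow-up; controls were probe without protein and protein plus probe with vehicle; some compounds called inactive have numbers as strong as hits; many hits fall short of the cut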
Target sequence (P11940 whole entry, looked up): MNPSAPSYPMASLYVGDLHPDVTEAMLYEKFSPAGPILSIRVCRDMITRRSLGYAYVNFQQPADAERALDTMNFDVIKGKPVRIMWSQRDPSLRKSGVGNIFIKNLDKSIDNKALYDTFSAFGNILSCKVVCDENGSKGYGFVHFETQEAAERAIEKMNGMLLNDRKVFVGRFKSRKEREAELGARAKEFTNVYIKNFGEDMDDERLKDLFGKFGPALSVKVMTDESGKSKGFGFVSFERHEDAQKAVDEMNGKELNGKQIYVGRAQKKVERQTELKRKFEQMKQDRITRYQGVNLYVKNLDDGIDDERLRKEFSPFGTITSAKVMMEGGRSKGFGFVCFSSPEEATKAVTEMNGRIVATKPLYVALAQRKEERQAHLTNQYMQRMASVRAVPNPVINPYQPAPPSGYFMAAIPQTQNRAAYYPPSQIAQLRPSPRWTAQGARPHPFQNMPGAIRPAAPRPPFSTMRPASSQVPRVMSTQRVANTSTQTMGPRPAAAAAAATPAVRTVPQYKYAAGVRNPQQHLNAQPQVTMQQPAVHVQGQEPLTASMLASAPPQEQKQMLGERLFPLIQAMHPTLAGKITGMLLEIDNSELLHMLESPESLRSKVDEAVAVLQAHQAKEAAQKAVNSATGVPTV
MT1-MMP act inh: blocks activation of human MT1-MMP. HT1080 RFP-PRO-GFP cells, GFP/RFP ratio fluorescence, overnight; percent of plate control window, DMSO zero. GFP/RFP ratio change, % at 20 µM. 360,000 compounds, 0.061% hits. AID 651647;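 active means GFP/RFP ratio change of at least 30% with cell ATP level not reduced by more than half and red fluorescence within 50% of control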; further: strong numbers were not always called active
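Test system: HT1080 cells expressing an RFP-PRO-GFP fluorescent reporter construct / Compound dosing: single-point 20 µM compound, 1% DMSO / Schedule: cells overnight before dosing, compound overnight, 37 °C, 5% CO2 / Evaluation: GFP/RFP fluorescence ratio / Control set: DMSO and RFP-L50D-GFP cell wells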
CSC inhib: cancer stem cell inhibition. cancer stem cell-like cells viability, luminescence. inhibition, % at 7.5 µM. AID 2717. 300,000 compounds, 1.1% hits;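 active means mean at 75% or more and at least half the replicates too; inconclusive means mean and replicates disagree; tested in HMLE shEcad cells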;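 further: 0% = median of negative and 100% = median of positive control wells; the first replicate is given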
Yeast UUG start: yeast start codon fidelity modulation; S. cerevisiae UUG-firefly luciferase reporter, luminescence/redox ratio; activity score, % at 18.7 µM; 350,000 compounds, 0.13% hits;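 active means replicate mean at a twofold rise or more, about +100% in these data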;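 further: firefly luciferase made from a UUG start codon reports start codon fidelity; reporter light over untreated wells divided by growth signal over untreated wells; some hits fall short of that in this replicate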
Rce1 inh: blocks yeast Ras-converting enzyme. Q03530. yeast membranes, quenched prenylated peptide cleavage fluorescence. calls only. 290,000 compounds, 0.27% hits. AID 2563;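 active means fall in fluorescence gain of 50% or more versus controls, with final raw signal at or below 3038400; inconclusive means same 50% fall but final raw signal above 3038400; inactive means fall in fluorescence gain under 50%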;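 further: plate controls were neutral control wells for no effect and wells lacking membranes for full effect; tested at 10 µM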
Target sequence (Q03530 whole entry, looked up): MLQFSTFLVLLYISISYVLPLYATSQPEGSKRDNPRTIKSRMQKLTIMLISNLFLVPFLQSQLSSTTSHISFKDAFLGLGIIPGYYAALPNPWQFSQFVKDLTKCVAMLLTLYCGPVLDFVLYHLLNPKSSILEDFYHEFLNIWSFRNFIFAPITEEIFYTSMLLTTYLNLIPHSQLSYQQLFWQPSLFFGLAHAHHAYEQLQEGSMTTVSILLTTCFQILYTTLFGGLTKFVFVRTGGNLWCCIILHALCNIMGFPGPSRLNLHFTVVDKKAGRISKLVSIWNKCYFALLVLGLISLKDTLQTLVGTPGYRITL
MT1-MMP act inh RFP: recorded beside MT1-MMP act inh, whose call it bears; RFP signal change, %; measured here: RFP expression control read;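 0 = vehicle wells; hits needed this value within 50% of zero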
* hit, by the source's call; i = inactive; ? = inconclusive; · = no result given. Outcome played no part in choosing rows (roughly 2.9% active in at least one column).

mol,eIF4H inh,HIV Env fusion,PABP FP inh,MT1-MMP act inh,MT1-MMP act inh RFP,CSC inhib,Yeast UUG start,Rce1 inh
Oc1ccccc1/C=N/c1c(-c2ccco2)nc2ccccn12,?,10,?,-2,8,-2,-19,i
CC1(C)OCC(N)(CO)CO1,·,-4,·,4,4,·,-7,·
CN(C)S(=O)(=O)c1ccc(N2CCCC2)c(C(=O)NNC(=O)COc2cccc(F)c2)c1,·,-11,·,3,2,-9,1,·
Cc1ccc(N(CC(=O)NC(C)(C)C)C(=O)CCC(=O)Nc2nccs2)c(C)c1,1,13,-3,2,1,-12,-11,i
O=C(c1cnn2c(C(F)(F)F)cc(-c3ccc4c(c3)OCO4)nc12)N1CCCC1,-17,-36,-6,0,7,-7,17,i
O=C(CCc1ccc(O)cc1)NN=Cc1cc(Br)ccc1O,·,2,·,12,-2,·,-2,·
COc1ccc(S(=O)(=O)Nc2cc(C)on2)cc1NC(C)=O,·,·,·,-3,0,-9,-4,·
COc1ccc(-c2n[nH]c(=S)n2-c2ccc(C)cc2)cc1,6,9,18,0,1,-6,-20,i
Clc1cccc(-c2sc(Nc3ccccc3)n[n+]2-c2ccccc2)c1Cl,1,-23,20,-1,-1,17,-15,i
Cc1noc(/C=C/N(C)C)c1S(=O)(=O)NC1CCCCC1,-1,·,-8,-29,7,-2,-2,i
N#Cc1ccc(-c2csc(NC(=O)c3ccc(S(=O)(=O)N4CCc5ccccc5C4)cc3)n2)cc1,-3,6,9,9,1,3,·,i
C/C=C/c1ccc(OCCCCN2CCC(C)CC2)c(OC)c1,10,5,10,4,2,26,·,i

Other entries follow.
mol,eIF4H inh,HIV Env fusion,PABP FP inh,MT1-MMP act inh,MT1-MMP act inh RFP,CSC inhib,Yeast UUG start,Rce1 inh
O=C(CSc1nnnn1C1CCCCC1)Nc1ccccc1F,6,22,-2,-1,3,-6,·,i
CCC(=O)Nc1cccc(-c2cc3ccccc3oc2=O)c1,0,-41,4,-1,-2,·,·,i
O=C(NC(=S)Nc1ccccc1O)c1ccc(-c2ccc(Cl)cc2)o1,18,·,-6,12,6,26,-13,i
CCN1CCN(CC(=O)Nc2ccccc2)C(=O)C1=O,-7,0,2,-2,5,1,-8,i
Cc1cccc(N(Cc2cc3ccc(C)cc3[nH]c2=O)C(=O)c2ccco2)c1,6,-19,5,-1,-4,-1,1,i
CCOc1ccc(NC(=O)CN(C)C(=O)c2c(C)nn(-c3ccc(F)cc3)c2Cl)cc1OCC,·,-108,·,3,1,-7,-3,i
CCOCCc1nn2c(=O)cc(CSCC(=O)Nc3cccc(C)c3C)nc2s1,-2,0,8,-1,3,12,-18,i
O=C(NCc1ccccc1)c1cccc(COc2cccc(Cl)c2)c1,-4,-29,1,-3,-8,3,-4,i
Cc1ccc(Nc2cc(C)nc(-c3ccccc3O)n2)cc1,-8,-93,-4,3,0,74,5,i
O=c1oc2ccccc2cc1-c1csc(Cc2nc(-c3ccc(Br)cc3)cs2)n1,-7,6,-3,2,-21,·,-13,i
COCC(C)N=C1NN=C(c2ccc(NC(C)=O)cc2)CS1 (stereo not given),-5,5,5,-1,-1,0,·,i
C(=C\c1ccccc1)/CN1CCN(C(c2nnnn2-c2ccc3c(c2)OCCO3)C2CC2)CC1 (stereo not given),·,-17,·,1,-4,·,-6,·

More compounds.
mol,eIF4H inh,HIV Env fusion,PABP FP inh,MT1-MMP act inh,MT1-MMP act inh RFP,CSC inhib,Yeast UUG start,Rce1 inh
CC1CC(C)CN(C(=O)CCC(=O)Nc2nnc(C3CCCCC3)s2)C1 (stereo not given),0,-8,5,-1,-1,23,-24,i
CCN1CCCC1CNC(=O)C1CCN(C(=O)c2cc3sccc3n2Cc2ccc(F)cc2)CC1 (stereo not given),2,-7,13,-2,-3,25,·,i
CCCCCCN1C2=NCCCN2c2ccccc21,-2,21,-5,-13,-1,-8,-23,i
COc1ccc(NC(=O)CC(c2ccco2)C(C)C)cc1 (stereo not given),-4,11,2,-2,-1,16,-12,i
CCn1cnc2c1c(=O)n(CC(=O)O)c(=O)n2Cc1ccccc1,-6,1,14,1,1,1,-21,i
CC(=O)Nc1ccc(NC(=O)CSc2cn(CC(=O)N3CCOCC3)c3ccccc23)cc1,15,1,11,-4,2,-9,5,i
OC(c1ccc(F)c(F)c1)c1nc(-c2ccc(F)c(Cl)c2)cs1 (stereo not given),·,6,·,0,6,·,-9,·
Cc1nnc(NC(=O)CSc2nc3c(c(=O)n(C)c(=O)n3C)n2C(C)C)s1,-6,10,-2,1,1,6,·,i
CC[C@]12c3[nH]c4cc(-c5ccco5)ccc4c3CCN1C(=O)[C@@H](CC(=O)NCc1cccc(C(F)(F)F)c1)C[C@@H]2C(=O)N1CCN(C(=O)c2ccco2)CC1,·,-90,·,1,-12,·,-4,·
CSCCC(NC(=O)c1cc([N+](=O)[O-])cc([N+](=O)[O-])c1)c1nc2ccccc2[nH]1 (stereo not given),2,-408,5,4,0,2,-8,i
O=C1c2ccccc2C(=O)N1CCCc1nc2ccccc2c(=O)n1-c1cccnc1,8,·,5,·,·,-9,·,i
O=C1NCCn2nc3ccccc3c21,·,-4,·,3,2,-13,-1,·

(cont.)
mol,eIF4H inh,HIV Env fusion,PABP FP inh,MT1-MMP act inh,MT1-MMP act inh RFP,CSC inhib,Yeast UUG start,Rce1 inh
Cc1ccc(-n2nnnc2SCC(=O)c2cc(C)n(-c3cc(C)on3)c2C)c(C)c1,11,·,37,-4,-4,140*,-3,i
CN(c1ccc(O)cc1)c1nc(-c2ccccc2)cs1,6,·,-4,-3,-13,70,-22,·
COc1ccc(C(=O)OCCc2ccc(O)cc2)cc1,7,·,0,7,3,14,-29,i
O=C(O)CNC(=O)c1ccc(N2CCOCC2)cc1[N+](=O)[O-],-2,10,0,3,-1,2,·,i
CN(C)C(=O)c1cc([N+](=O)[O-])cc([N+](=O)[O-])c1N(C)C,-3,-11,-5,4,3,-14,-19,i
CCOC(=O)c1sc2nc(SCC(=O)N(CC)CC)n(CCCN3CCCC3=O)c(=O)c2c1C,-4,4,-4,7,-6,-5,·,i
Cc1ccc(Cl)cc1N1CCN(S(C)(=O)=O)CC1,3,·,3,6,1,-11,-7,i
CCN1/C(=C2\OC(=S)N(C)C2=O)Sc2ccccc21,-4,·,-7,0,2,21,-14,i
CC(=O)Nc1ccc(S(=O)(=O)N2CCN(C(=O)c3ncoc3-c3ccccc3F)CC2)cc1,-3,-6,5,2,-4,3,-15,i
O=C(NCc1ccccn1)C1CCN(S(=O)(=O)N2CCCCC2)CC1,1,·,-3,-3,1,-12,-45,i
N#CC1(NC(=O)COC(=O)c2nccnc2N)CCCCC1,·,-16,·,-3,4,-8,-7,i
CCOC(=O)C1CCCN(C(=O)c2ccc(C)c(NC(=O)C3=C(C)OCCS3)c2)C1 (stereo not given),-7,-4,7,4,2,-3,0,i

More results follow.
mol,eIF4H inh,HIV Env fusion,PABP FP inh,MT1-MMP act inh,MT1-MMP act inh RFP,CSC inhib,Yeast UUG start,Rce1 inh
CCC(C(=O)NCCCN1CC(C)CC(C)C1)n1nc(C)c2sc3ccccc3c2c1=O (stereo not given),5,-2,6,5,6,-2,-11,i
Cc1ccc(S(=O)(=O)N2CCc3ccccc3CC2)cc1,·,19,·,-5,-21,·,-3,·
COC(=O)C1CCN(C(=O)CN2C(=O)NC(CC(C)C)C2=O)CC1 (stereo not given),·,·,·,4,1,-16,-26,·
COc1ccc(C)c2sc(NNC(=O)COc3ccccc3)nc12,4,·,1,·,·,1,·,i
Fc1cccc(Nc2nc(N3CCOCC3)nc(N3CCOCC3)n2)c1,-3,29,-5,-5,-1,-4,-6,i
CC(=O)Nc1cccc(C(=O)OCC(=O)NC(=O)Cc2ccccc2)c1,·,·,·,0,1,-8,-16,i
Cn1c(=O)cc(OCCCC(=O)Nc2ccc3c(c2)OCCO3)c2ccccc21,2,-9,0,8,9,-17,14,i
COc1ccc(-c2nnn(CC(=O)Nc3sc4c(c3C#N)CCCC4)n2)cc1,-4,14,-5,-2,2,13,-17,i
Cc1nn(-c2ccc(F)cc2)c(C)c1CN1CCN(CCC(C)C)C(CCO)C1 (stereo not given),1,0,10,2,0,42,-5,i
COc1ccc(Cl)cc1N(CC(=O)Nc1ccc2c(c1)OCCO2)S(C)(=O)=O,-1,-24,1,0,0,-15,-6,·
Cc1cc(C)cc(OCC(=O)N/N=C/c2ccccn2)c1,16,4,15,2,4,-1,-27,i
COc1cccc(N2CC(NC(=O)c3ccc4ccccc4c3)CC2=O)c1 (stereo not given),·,5,·,5,0,1,·,i

Going on with the list:
mol,eIF4H inh,HIV Env fusion,PABP FP inh,MT1-MMP act inh,MT1-MMP act inh RFP,CSC inhib,Yeast UUG start,Rce1 inh
CC(=O)Nc1cncc(-c2ccccc2CO)n1,·,-1,·,-2,1,·,0,·
CCCCSc1nc2sc3c(c2c(=O)n1-c1ccc(OC)cc1)CCN(C)C3,-13,-18,-8,-1,-6,·,-13,i
CCCS(=O)(=O)c1nc(S(=O)(=O)c2ccc(C)cc2)c(N2CCc3ccccc3C2)s1,-1,8,0,-7,-8,50,·,i
COc1ccc(-n2nnc3c(SCC(=O)Nc4ccccc4F)ncnc32)cc1,-3,1,-14,2,-4,12,·,i
Cc1nnsc1NC(=O)OCC(C)C,-7,·,-26,-2,-1,-4,-8,i
CCOCCc1nnc(NC(=O)C2CC(=O)N(CCc3ccc(F)cc3)C2)s1 (stereo not given),4,8,3,0,1,-12,-6,i
CCNC(=S)Nc1ccc(C)c(S(=O)(=O)Nc2ccccc2OC)c1,-1,-8,10,1,-2,-6,·,i
Cc1ccc(-n2c(-c3cccnc3)n[nH]c2=S)c(C)c1,-6,-28,-1,9,7,11,-19,i
Cc1ccc2nc(N3CCN(C(=O)c4ccco4)CC3)sc2c1,·,-23,·,0,-3,-5,·,i
O=C(COC(=O)c1ccc(Cl)c(S(=O)(=O)N2CCCCC2)c1)NCc1ccco1,49,7,4,-7,-1,·,-5,i
Nc1nc(SC2c3cccc4cccc(c34)C2NS(=O)(=O)c2ccccc2)n[nH]1 (stereo not given),8,-18,21,-1,-1,0,·,i
CC(C)[C@H](N)c1nnc(SCC(=O)c2ccc(Cl)cc2)o1,-2,-25,5,6,-3,-6,-14,i
CN(c1cccc(NC(=O)CN(c2ccc(F)cc2)S(C)(=O)=O)c1)S(C)(=O)=O,-4,-11,0,1,1,-13,-2,i

Screens (PubChem BioAssay)
